TPT1 inh: C. albicans TPT1 enzyme inhibition. recombinant caTPT1, FP RNA substrate dephosphorylation. inhibition, % at 5 µM. 300,000 tested, 0.81% active;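 active = inhibition above the mean of all tested compounds plus 3 SD, set per screening campaign, cut at about 24% in these data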;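 note: plate controls were DMSO alone for no effect and ferristatin control at 100 nM for full effect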
PP1 counter: PP1-alpha (human) inhibition in PP5 counter-screen | purified PP1alpha, OMFP fluorescence | inhibition, % at 6.7 µM | 320,000 tested, 0.9% active | AID 2235;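 active = inhibition above the mean inhibition of all tested compounds plus 3 SD, computed separately for each screening campaign, cut at about 15% in these data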
Target sequence (P62136 whole entry, looked up): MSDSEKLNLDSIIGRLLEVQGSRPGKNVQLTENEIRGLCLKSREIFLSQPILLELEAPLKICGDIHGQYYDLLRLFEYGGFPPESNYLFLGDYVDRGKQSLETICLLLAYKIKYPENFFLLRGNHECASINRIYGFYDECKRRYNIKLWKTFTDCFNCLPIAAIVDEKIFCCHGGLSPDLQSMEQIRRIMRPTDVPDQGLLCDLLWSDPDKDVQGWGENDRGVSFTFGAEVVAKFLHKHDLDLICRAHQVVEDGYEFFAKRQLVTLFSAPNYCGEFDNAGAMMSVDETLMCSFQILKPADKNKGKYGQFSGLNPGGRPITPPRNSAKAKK
Fh CTSL1 inh: counter-screen for PFM18AAP inhibitors: inhibitors of F. hepatica cathepsin L1. recombinant F. hepatica cathepsin L1, Z-Leu-Arg-MCA fluorescence. inhibition, % at 5.96 µM. 300,000 tested, 0.49% active;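 active = inhibition above the mean of all tested compounds plus 3 SD, set per screening campaign, cut at about 17% in these data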;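 note: 0% = plate median of test compound wells and 100% = 1 µM Z-Phe-Ala-diazomethylketone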
core dimer inh: blocks dimerization of HCV core protein | TR-FRET GST/Flag-core106 dimerization, 1536-well | inhibition, % at 5 µM | 300,000 tested, 0.33% active;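 active = inhibition above the mean of all tested compounds plus 3 SD, set per screening campaign, cut at about 45% in these data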
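Material: Tagged HCV core106 pair (GST and Flag) | Amount: GST-core106 13.5 nM, Flag-core106 17 nM | Medium: KF-containing HEPES buffer, pH 7.45, DTT, CHAPS, BSA | Reagent: Eu donor and XL665 acceptor anti-tag antibodies | Schedule: 4 h at 22.5 °C | Technique: Time-resolved FRET, ex 340 nm, em 617 and 671 nm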
Efflux pump inh: antifungal efflux pump inhibition, Nile Red retention; S. cerevisiae Candida pump triplex; inhibition, % at 10 µM; 330,000 tested, 0.44% active;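 active = plate passing quality check with inhibition over a set limit, or well fluorescence over plate mean plus 4 SD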;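 note: Nile Red retained in pooled yeast measured as flow cytometry median fluorescence; 0% = buffer negative control and 100% = Enniatin B positive control; higher means more Nile Red kept so more efflux inhibition; some compounds called inactive have numbers as strong as hits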
ZTA DNA inh: ZTA (EBV) inhibition in EBNA-1 counter-screen; P03206; ZTA-DNA binding, fluorescence polarization; inhibition, % at 11 µM; 320,000 tested, 0.15% active; AID 2234; in the data active = inhibition above about 33%
Target sequence (P03206 whole entry, looked up): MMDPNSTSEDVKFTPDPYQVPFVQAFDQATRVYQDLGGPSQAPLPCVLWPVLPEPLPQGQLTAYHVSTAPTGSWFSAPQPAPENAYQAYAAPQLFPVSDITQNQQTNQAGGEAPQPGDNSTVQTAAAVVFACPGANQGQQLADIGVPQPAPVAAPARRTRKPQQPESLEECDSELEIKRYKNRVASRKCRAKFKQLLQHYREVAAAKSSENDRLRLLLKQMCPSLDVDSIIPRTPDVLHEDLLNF
PP5 primary: PP5 (human) phosphatase inhibition | P53041 | purified PP5c, OMFP substrate fluorescence | inhibition, % at 6.7 µM | 320,000 tested, 0.18% active | AID 1987;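 active = inhibition above the campaign's mean inhibition across all tested compounds plus 3 SD, cut at about 9.5% in these data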;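 note: 0% = DMSO only and 100% = 100 µM cantharidin control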
Target sequence (P53041 whole entry, looked up): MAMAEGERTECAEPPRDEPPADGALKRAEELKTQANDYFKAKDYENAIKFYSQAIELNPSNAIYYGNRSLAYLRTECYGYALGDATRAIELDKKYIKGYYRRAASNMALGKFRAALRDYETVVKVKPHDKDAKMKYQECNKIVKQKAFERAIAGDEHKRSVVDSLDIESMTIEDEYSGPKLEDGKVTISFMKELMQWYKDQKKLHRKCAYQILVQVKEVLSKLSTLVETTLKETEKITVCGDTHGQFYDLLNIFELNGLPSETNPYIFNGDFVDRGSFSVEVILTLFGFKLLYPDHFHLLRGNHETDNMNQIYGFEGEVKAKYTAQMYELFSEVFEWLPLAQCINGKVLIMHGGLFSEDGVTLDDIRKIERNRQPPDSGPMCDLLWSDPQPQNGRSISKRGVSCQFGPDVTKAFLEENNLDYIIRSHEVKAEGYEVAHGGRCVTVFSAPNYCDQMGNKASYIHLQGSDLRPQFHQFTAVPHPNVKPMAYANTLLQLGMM
EBNA-1 inh: blocks EBNA-1 binding to DNA; EBNA-1 DNA binding, fluorescence polarization; inhibition, % at 14.8 µM; 300,000 tested, 0.34% active; AID 1950; in the data active = inhibition above about 28%
Active calls of the source: *. Not all compounds are listed; rates above refer to the full screens.

`COc1nc(NC(C)=O)nc(C)c1Br` gave TPT1 inh 1, PP1 counter 1, Fh CTSL1 inh -3, core dimer inh -3, Efflux pump inh -0.1, ZTA DNA inh 8, PP5 primary 0.1 and EBNA-1 inh 12.
`O=C(C1=C(O)C(=O)N(CCN2CCOCC2)C1c1ccc(Cl)cc1)c1cc2ccccc2o1` (stereo not given) gave TPT1 inh 8, PP1 counter 19*, Fh CTSL1 inh 0, core dimer inh 6, Efflux pump inh -0.1, ZTA DNA inh 11, PP5 primary 3.8 and EBNA-1 inh -4.
`O=C1Nc2c(c(=O)[nH]c(=O)n2-c2ccc(F)cc2)C1(NS(=O)(=O)c1ccccc1)C(F)(F)F` (stereo not given) gave TPT1 inh 3, PP1 counter -5, Fh CTSL1 inh 0, core dimer inh -5, Efflux pump inh 0.1, ZTA DNA inh 7, PP5 primary 0.3 and EBNA-1 inh -8.
For CC1(OC(=O)CCc2ccccc2)C(=O)C=C2C=C(c3ccc(C#N)cc3)N(CC3CC3)C=C2C1=O (stereo not given) the results were TPT1 inh -1, PP1 counter 6, Fh CTSL1 inh 3, core dimer inh 30, Efflux pump inh -0.1, ZTA DNA inh 10, PP5 primary 1.4 and EBNA-1 inh 4.
`N#CCCN(CCC#N)C(=O)c1ccc2c(c1)OCO2` gave TPT1 inh -3, PP1 counter 0, Fh CTSL1 inh -1, core dimer inh -3, Efflux pump inh -0.1, ZTA DNA inh 6, PP5 primary -0.4 and EBNA-1 inh 2.
`CCOC(=O)c1[nH]c2cc(OC)c(OC)cc2c1NC(=O)C(C)N1CCN(Cc2ccccc2)CC1` (stereo not given) gave TPT1 inh 2, PP1 counter -1, Fh CTSL1 inh 4, core dimer inh 4, Efflux pump inh -0.1, ZTA DNA inh -3, PP5 primary -0.2 and EBNA-1 inh 2.
For O=C(c1ccc2c(c1)OCO2)N1CCN=C1SCc1ccccc1 the results were TPT1 inh -4, PP1 counter 0, Fh CTSL1 inh 3, core dimer inh 0, Efflux pump inh 0.1, ZTA DNA inh -8, PP5 primary 1.7 and EBNA-1 inh 7.
CCn1c(COc2cccc(C)c2)nnc1SCC(=O)Nc1cccc(C(=O)O)c1 was read as TPT1 inh 6, PP1 counter 1, Fh CTSL1 inh -2, core dimer inh 2, Efflux pump inh 0.1, ZTA DNA inh -7, PP5 primary 1.8 and EBNA-1 inh -4.
O=C(COC(=O)c1cc([N+](=O)[O-])ccc1NCCO)Nc1ccc2c(c1)OCO2 was read as TPT1 inh -2, PP1 counter -6, Fh CTSL1 inh -3, core dimer inh 13, Efflux pump inh -0.1, ZTA DNA inh -7, PP5 primary 2.2 and EBNA-1 inh -4.
For Oc1ccc(C(c2nnnn2C2CCCC2)N2CCc3ccccc3C2)cc1 (stereo not given) the results were TPT1 inh 0, PP1 counter 1, Fh CTSL1 inh 4, core dimer inh 19, Efflux pump inh 0.1, ZTA DNA inh 9, PP5 primary 0.4 and EBNA-1 inh 6.
COc1cc(/C=N/n2cnnc2)ccc1OCc1ccc(C)cc1 was read as TPT1 inh 3, PP1 counter -2, Fh CTSL1 inh 7, core dimer inh -3, Efflux pump inh 0.0, ZTA DNA inh 6, PP5 primary 0.9 and EBNA-1 inh -6.
`O=C(NC1(C(F)(F)F)C(=O)Nc2c1c(=O)[nH]c(=O)n2-c1ccccc1)c1cccnc1` (stereo not given) gave TPT1 inh -1, PP1 counter -4, Fh CTSL1 inh 0, core dimer inh -2, Efflux pump inh 0.1, ZTA DNA inh -10, PP5 primary 2.9 and EBNA-1 inh -10.
For CCOC(=O)N1CCN(C(=O)Nc2ccc3nc(C)sc3c2)CC1 the results were TPT1 inh 3, PP1 counter -3, Fh CTSL1 inh 1, core dimer inh -2, Efflux pump inh 0.1, ZTA DNA inh 5, PP5 primary 4.3 and EBNA-1 inh -4.
Screening CCN1CCN(C(=O)c2ccc3c(c2)N(Cc2ccc(C)cc2)CCS3)CC1 returned TPT1 inh -1, PP1 counter 2, Fh CTSL1 inh 0, core dimer inh 0, Efflux pump inh 0.0, ZTA DNA inh 2, PP5 primary -0.6 and EBNA-1 inh 6.
For Cc1cccc(-n2c(SCC(=O)NC3CCCC3)nnc2-c2ccoc2C)c1 the results were TPT1 inh 0, PP1 counter 2, Fh CTSL1 inh 3, core dimer inh 8, Efflux pump inh 0.2, ZTA DNA inh 4, PP5 primary -0.6 and EBNA-1 inh -4.
`CN(CC(=O)Nc1ccc(Cl)c(C(F)(F)F)c1)C(=O)Cn1cc([N+](=O)[O-])ccc1=O` gave PP1 counter -4, Efflux pump inh -0.1, ZTA DNA inh 2 and PP5 primary 2.1.
C=CCN(c1ccccc1)S(=O)(=O)c1cc2c(cc1C)NC(=O)CO2 was read as TPT1 inh 3, PP1 counter -4, Fh CTSL1 inh -2, core dimer inh 4, Efflux pump inh -0.1, ZTA DNA inh -9, PP5 primary 4.0 and EBNA-1 inh 1.
`Cc1nc2ccc(NC(=O)NCc3ccco3)cc2s1` gave TPT1 inh 2, PP1 counter -13, Fh CTSL1 inh -5, core dimer inh -1, Efflux pump inh 0.4, ZTA DNA inh -9, PP5 primary 3.3 and EBNA-1 inh -6.
`O=C(O)c1cc(O)ccc1-c1ccc(O)cc1` gave TPT1 inh -6, PP1 counter -5, Fh CTSL1 inh 0, core dimer inh 0, Efflux pump inh 0.0, ZTA DNA inh 9, PP5 primary -0.9 and EBNA-1 inh 2.
CCOc1cc(C(=S)N2CCOCC2)ccc1OC(=O)c1ccc(C)cc1 was read as TPT1 inh -4, PP1 counter 0, Fh CTSL1 inh -3, core dimer inh -10, Efflux pump inh -0.2, ZTA DNA inh -6, PP5 primary 2.7 and EBNA-1 inh -4.
COc1ccc(OC)c(NS(=O)(=O)c2cccs2)c1 was read as TPT1 inh 3, PP1 counter -3, Fh CTSL1 inh 1, core dimer inh -34, Efflux pump inh 0.1, ZTA DNA inh 1, PP5 primary 3.7 and EBNA-1 inh -12.
For CC1CCCN(C(=O)c2cc(-c3cccs3)nc3ccccc23)C1 (stereo not given) the results were Efflux pump inh 0.1.
`Cc1ccc(S(=O)(=O)C(C#N)c2nc3ccccc3nc2N2CCCC2)cc1` (stereo not given) gave TPT1 inh -3, PP1 counter 3, Fh CTSL1 inh 0, core dimer inh 40, Efflux pump inh 0.1, ZTA DNA inh -8, PP5 primary 4.8 and EBNA-1 inh 4.
CC(=O)c1ccc(NC(=O)c2cnsn2)cc1 was read as TPT1 inh -3, PP1 counter -4, Fh CTSL1 inh -5, core dimer inh -3, Efflux pump inh -0.1, ZTA DNA inh 1, PP5 primary 4.8 and EBNA-1 inh -2.
CS(=O)(=O)N1CC(C(=O)NC2CC2)Oc2ccc(Cl)cc21 (stereo not given) was read as TPT1 inh 5, PP1 counter -2, Fh CTSL1 inh 1, core dimer inh -4, Efflux pump inh -0.1, ZTA DNA inh 3, PP5 primary 0.2 and EBNA-1 inh 4.
Cc1cc(C)cc(OC(=O)CCN2C(=O)c3ccccc3C2=O)c1 was read as TPT1 inh -1, PP1 counter 0, Fh CTSL1 inh -46, core dimer inh 7, Efflux pump inh 0.0, ZTA DNA inh -7, PP5 primary 1.1 and EBNA-1 inh -2.
`CCC(C)[C@H](NC(=O)OC(C)(C)C)C(=O)N/N=C/C1=Cc2ccccc2OC1` (stereo not given in full) gave TPT1 inh 1, PP1 counter 4, Fh CTSL1 inh 11, core dimer inh -7, Efflux pump inh 0.0, ZTA DNA inh -10, PP5 primary 2.0 and EBNA-1 inh 4.
`COc1ccc(/C=C2/Sc3ccc(C(=O)N4CCOCC4)cc3NC2=O)cc1OC` gave TPT1 inh 5, PP1 counter 1, Fh CTSL1 inh -1, core dimer inh -8, Efflux pump inh 0.1, ZTA DNA inh -10, PP5 primary 3.0 and EBNA-1 inh -10.
Screening COc1ccc(C2CC(=O)C3=C(C2)NC(C)=C(C#N)C3c2ccc(N(C)C)cc2)cc1 (stereo not given) returned TPT1 inh 1, PP1 counter 4, Fh CTSL1 inh 5, core dimer inh 16, Efflux pump inh -0.1, ZTA DNA inh 0, PP5 primary 3.6 and EBNA-1 inh -1.
Cc1ccc(S(=O)(=O)N(C)C)cc1N was read as TPT1 inh -1, PP1 counter 0, Fh CTSL1 inh -1, core dimer inh -1, Efflux pump inh -0.1, ZTA DNA inh 11, PP5 primary 2.9 and EBNA-1 inh -4.

Part of the list above in order of count of non-hydrogen atoms, ascending:
Cc1ccc(S(=O)(=O)N(C)C)cc1N was read as TPT1 inh -1, PP1 counter 0, Fh CTSL1 inh -1, core dimer inh -1, Efflux pump inh -0.1, ZTA DNA inh 11, PP5 primary 2.9 and EBNA-1 inh -4.
COc1ccc(OC)c(NS(=O)(=O)c2cccs2)c1 was read as TPT1 inh 3, PP1 counter -3, Fh CTSL1 inh 1, core dimer inh -34, Efflux pump inh 0.1, ZTA DNA inh 1, PP5 primary 3.7 and EBNA-1 inh -12.
Cc1cc(C)cc(OC(=O)CCN2C(=O)c3ccccc3C2=O)c1 was read as TPT1 inh -1, PP1 counter 0, Fh CTSL1 inh -46, core dimer inh 7, Efflux pump inh 0.0, ZTA DNA inh -7, PP5 primary 1.1 and EBNA-1 inh -2.
`CCC(C)[C@H](NC(=O)OC(C)(C)C)C(=O)N/N=C/C1=Cc2ccccc2OC1` (stereo not given in full) gave TPT1 inh 1, PP1 counter 4, Fh CTSL1 inh 11, core dimer inh -7, Efflux pump inh 0.0, ZTA DNA inh -10, PP5 primary 2.0 and EBNA-1 inh 4.

(list continues)
`O=S(=O)(NC1CCN(Cc2ccccc2)CC1)c1cccc2cccnc12` gave TPT1 inh 1, PP1 counter -5, Fh CTSL1 inh 0, core dimer inh 1, Efflux pump inh 0.1, ZTA DNA inh 7, PP5 primary 4.5 and EBNA-1 inh -11.
`O=[N+]([O-])c1ccc(C2=NN(CCO)C(=Nc3ccc(OC(F)(F)F)cc3)SC2)cc1` gave TPT1 inh 0, PP1 counter 1, Fh CTSL1 inh 1, core dimer inh 5, Efflux pump inh 0.0, ZTA DNA inh 4, PP5 primary 0.5 and EBNA-1 inh 7.
Screening O=C(NC1CCCC1)C(c1ccc(F)cc1)N(C(=O)c1csnn1)c1ccccc1 (stereo not given) returned TPT1 inh 0, PP1 counter 0, Fh CTSL1 inh -4, core dimer inh -7, Efflux pump inh -0.1, ZTA DNA inh -21, PP5 primary -0.7 and EBNA-1 inh -5.
Screening COCC(=O)Nc1nc2n(n1)C(c1ccccc1)CC(c1ccc(OC)cc1)N2 (stereo not given) returned TPT1 inh -1, PP1 counter -2, Fh CTSL1 inh 2, core dimer inh -2, Efflux pump inh 0.0, ZTA DNA inh 1, PP5 primary 2.8 and EBNA-1 inh 1.
For Cc1ccc(/C=N/n2c(-c3cccc(Cl)c3)n[nH]c2=S)o1 the results were TPT1 inh 0, PP1 counter 0, Fh CTSL1 inh -5, core dimer inh 6, Efflux pump inh -0.1, ZTA DNA inh 1, PP5 primary -3.4 and EBNA-1 inh 10.
CC1(OC(=O)c2cccs2)C(=O)C=C2C=C(C3CC3)OC=C2C1=O (stereo not given) was read as TPT1 inh 1, PP1 counter -4, Fh CTSL1 inh 2, core dimer inh 25, Efflux pump inh 0.1, ZTA DNA inh 17, PP5 primary 2.6 and EBNA-1 inh 13.
`COc1ccc(CCNC(=O)Cn2nnc(-c3ccc(N4CCOCC4)cc3)n2)cc1OC` gave TPT1 inh 0, PP1 counter 0, Fh CTSL1 inh -4, core dimer inh -2, Efflux pump inh 0.1, ZTA DNA inh -6, PP5 primary 1.7 and EBNA-1 inh 5.
`CCOC(=O)c1[nH]c2ccc(F)cc2c1NC(=O)CN1CCc2cc(OC)c(OC)cc2C1` gave TPT1 inh 2, PP1 counter -1, Fh CTSL1 inh -2, core dimer inh 13, Efflux pump inh -0.1, ZTA DNA inh 4, PP5 primary 4.0 and EBNA-1 inh -4.
Screening Cc1cc(=O)n2[nH]c(-c3ccccc3Cl)cc2n1 returned TPT1 inh 1, PP1 counter 1, Fh CTSL1 inh 3, core dimer inh 4, Efflux pump inh 0.1, ZTA DNA inh 8, PP5 primary 0.8 and EBNA-1 inh -3.
